# CSC inhib = cancer stem cell viability inhibitors, primary screen, luminescence; 300,000 tested, 1.1% active; inhibition, % at 7.5 µM; cancer stem cell-like cells viability;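 active = mean at 75% or more and at least half the replicates too; inconclusive = mean and replicates disagree; tested in HMLE shEcad cells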;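 note: 0% = median of negative and 100% = median of positive control wells; the first replicate is given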
# eIF4H inh = human eIF4H binding inhibitors, primary screen, translation initiation inhibitor project, biochemical, uHTS, fluorescence polarization; 290,000 tested, 0.94% active; inhibition, % at 35 µM; Eukaryotic translation initiation factor 4H (Homo sapiens), Q15056; eIF4H fluorescence polarization binding assay;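 active = 50% or more with normal probe brightness, or confirmed in later tests; inconclusive = above 50% with abnormal brightness, or retests that disagree; inactive = below 50% or failed in later tests; about a fifth of its hits are not listed in these tables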;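 note: calls also rest on retests at 20 µM and on dose response follow-up; 0% = protein and probe with vehicle and 100% = probe without protein; strong numbers were not always called active; many hits fall short of the cut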
# Rce1 inh = yeast Rce1p protease inhibitors, primary screen, biochemical, fluorescence, cell-free homogeneous; calls only; CAAX prenyl protease 2 (Saccharomyces cerevisiae (strain ATCC 204508 / S288c)), Q03530; 290,000 tested, 0.27% active; yeast membranes, quenched prenylated peptide cleavage fluorescence;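 active = fall in fluorescence gain of 50% or more versus controls, with final raw signal at or below 3038400; inconclusive = same 50% fall but final raw signal above 3038400; inactive = fall in fluorescence gain under 50%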;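 note: plate controls were neutral control wells for no effect and wells lacking membranes for full effect; tested at 10 µM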
# Target sequence (Q03530 whole entry, looked up): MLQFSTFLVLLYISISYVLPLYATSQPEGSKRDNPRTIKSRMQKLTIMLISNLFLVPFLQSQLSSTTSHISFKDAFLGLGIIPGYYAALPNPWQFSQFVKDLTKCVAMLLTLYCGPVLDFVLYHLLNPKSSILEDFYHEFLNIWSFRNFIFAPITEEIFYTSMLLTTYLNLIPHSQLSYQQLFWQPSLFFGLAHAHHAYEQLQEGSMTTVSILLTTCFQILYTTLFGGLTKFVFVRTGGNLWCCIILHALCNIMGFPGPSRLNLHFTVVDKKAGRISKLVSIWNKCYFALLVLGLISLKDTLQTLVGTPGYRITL
# HIV Env fusion = inhibitors of HIV-1 Env-driven cell-cell fusion, primary screen, HeLa-JRFL effector, CEM21 target cells, luciferase. AID 651610, 2012. 360,000 tested, 1.1% active. inhibition, % at 12.3 µM;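 active = mean replicate inhibition score of at least 50 and every replicate individually at or above 50; inconclusive = only one of the two criteria met; inactive = mean below 50 and not all replicates reaching 50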;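 note: 0% = plate neutral controls and 100% = maraviroc near 300 nM; one replicate is shown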
# PABP polyA inh = PABP poly(A) RNA binding inhibitors, primary screen, biochemical, fluorescence polarization, uHTS. Polyadenylate-binding protein 1 (Homo sapiens), P11940. inhibition, % at 35 µM. 290,000 tested, 1% active. AID 2014, 2009;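 active = 50% or more with normal probe brightness, or confirmed in later tests; inconclusive = above 50% with abnormal brightness, or retests that disagree; inactive = below 50% or failed in later tests; about a fifth of its hits are not listed in these tables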;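 note: calls also rest on retests at 20 µM and on dose response follow-up; controls were probe without protein and protein plus probe with vehicle; some compounds called inactive have numbers as strong as hits; many hits fall short of the cut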
# Target sequence (P11940 whole entry, looked up): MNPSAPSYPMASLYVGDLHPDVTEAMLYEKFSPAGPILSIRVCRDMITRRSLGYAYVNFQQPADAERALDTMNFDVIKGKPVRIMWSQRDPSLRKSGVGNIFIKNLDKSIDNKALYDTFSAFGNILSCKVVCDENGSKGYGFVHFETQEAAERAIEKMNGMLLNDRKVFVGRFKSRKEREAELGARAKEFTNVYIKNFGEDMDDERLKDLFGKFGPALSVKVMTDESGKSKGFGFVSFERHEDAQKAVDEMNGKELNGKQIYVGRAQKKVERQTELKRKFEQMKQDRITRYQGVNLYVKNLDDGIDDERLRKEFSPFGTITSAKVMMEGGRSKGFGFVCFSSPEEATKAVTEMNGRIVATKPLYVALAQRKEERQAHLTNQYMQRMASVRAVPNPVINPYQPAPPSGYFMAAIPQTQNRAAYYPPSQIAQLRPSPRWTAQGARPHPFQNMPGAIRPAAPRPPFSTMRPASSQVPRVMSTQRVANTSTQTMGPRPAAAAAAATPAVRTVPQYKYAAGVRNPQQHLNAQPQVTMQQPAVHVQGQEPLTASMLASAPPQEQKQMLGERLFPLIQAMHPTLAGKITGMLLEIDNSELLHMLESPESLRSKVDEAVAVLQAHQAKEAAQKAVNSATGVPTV
# MT1-MMP act inh = blockers of MT1-MMP proenzyme processing, primary screen, HT1080 RFP-PRO-GFP cells, GFP/RFP fluorescence; Matrix metalloproteinase-14 (Homo sapiens), P50281; GFP/RFP ratio fluorescence, overnight; percent of plate control window, DMSO zero; GFP/RFP ratio change, % at 20 µM; 360,000 tested, 0.061% active; AID 651647, 2012;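 active = GFP/RFP ratio change of at least 30% with cell ATP level not reduced by more than half and red fluorescence within 50% of control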; note: strong numbers were not always called active
#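 Assay system: RFP-PRO-GFP reporter HT1080 cells; read-out basis: GFP/RFP fluorescence ratio; benchmarks: DMSO wells and RFP-L50D-GFP cells; doses: 20 µM single dose, 1% DMSO; schedule: overnight cell settling, then overnight compound exposure, 37 °C, 5% CO2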
# Yeast UUG start = modulators of yeast start codon fidelity, primary screen, whole organism, S. cerevisiae, single point, plate reader | S. cerevisiae UUG-firefly luciferase reporter, luminescence/redox ratio | 350,000 tested, 0.13% active | activity score, % at 18.7 µM | AID 602363, 2012;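 active = replicate mean at a twofold rise or more, about +100% in these data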;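 note: firefly luciferase made from a UUG start codon reports start codon fidelity; reporter light over untreated wells divided by growth signal over untreated wells; some hits fall short of that in this replicate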
# eIF4H inh retest = second read-out of eIF4H inh, no call of its own (marks repeat the call); inhibition, %; compound at 20 µM; confirmation average;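 mean of two retest wells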
# PABP polyA inh retest = recorded beside PABP polyA inh, whose call it bears; inhibition, %; compound at 20 µM; confirmation repeats;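 mean of two retest wells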
# MT1-MMP act inh RFP = also measured in MT1-MMP act inh; calls as there; RFP signal change, %; measured here: RFP expression control read;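 0 = vehicle wells; hits needed this value within 50% of zero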
# * marks the source's active call; other numbers are inactive results; i = inactive; ? = inconclusive; . = not tested or not shown.
SMILES,CSC inhib,eIF4H inh,Rce1 inh,HIV Env fusion,PABP polyA inh,MT1-MMP act inh,MT1-MMP act inh RFP,Yeast UUG start,others
COc1ccc(/C=N/NC(=O)C(=O)Nc2ccccn2)cc1OC,-11,9,i,.,5,-3,-2,-28,
c1cnn(-c2nc(N3CCOCC3)nc(N3CCOCC3)n2)c1,-8,5,i,38,5,-6,3,6,
O=C(NCCCO)/C(=C/c1ccco1)NC(=O)c1ccc(Br)o1,-8,58*,i,6,-6,-1,1,.,eIF4H inh retest=65*;PABP polyA inh retest=46
c1ccc(OCc2nc3c4c(ncn3n2)-c2ccccc2CC42CCCC2)cc1,20,-4,i,13,4,-4,-13,-16,
COc1ccnc2c1c(=O)n(Cc1c(F)cccc1Cl)c(=O)n2C,18,3,i,16,-8,4,0,1,
CON/C=C(\C=Nc1ccc(F)cc1)c1ncc(C(F)(F)F)cc1Cl,15,-8,i,-7,3,0,7,.,
COc1cc2c(cc1C=O)OC(C)C2 (stereo unspecified),-2,0,i,-8,7,-1,2,.,
CCOC(=O)C(N=Nc1nn[nH]n1)C(C)=O (stereo unspecified),.,.,.,12,.,4,0,-19,
COC(=O)c1cc(NC(=O)CN(C)C2CCS(=O)(=O)C2)cc(C(=O)OC)c1 (stereo unspecified),-11,.,.,10,.,9,3,3,
CC(C)Oc1ccc(C(=O)NC2CCN(Cc3ccccc3)CC2)cc1,-11,-1,i,-8,-4,2,1,11,

# Reprinted at random: 2 compounds from above.
SMILES,CSC inhib,eIF4H inh,Rce1 inh,HIV Env fusion,PABP polyA inh,MT1-MMP act inh,MT1-MMP act inh RFP,Yeast UUG start,others
COC(=O)c1cc(NC(=O)CN(C)C2CCS(=O)(=O)C2)cc(C(=O)OC)c1 (stereo unspecified),-11,.,.,10,.,9,3,3,
COc1ccnc2c1c(=O)n(Cc1c(F)cccc1Cl)c(=O)n2C,18,3,i,16,-8,4,0,1,

# Carrying on:
SMILES,CSC inhib,eIF4H inh,Rce1 inh,HIV Env fusion,PABP polyA inh,MT1-MMP act inh,MT1-MMP act inh RFP,Yeast UUG start,others
O=C(NC(=O)c1c(F)cccc1F)Nc1ccccc1SC(F)F,-14,2,i,-13,-12,2,-2,.,
CCc1nnc(NC(=O)C2CCN(c3nc(C)cc(C)n3)CC2)s1,2,-1,i,-35,5,0,-1,-26,
O=C(NC1CC1)c1c[nH]c2ccc(S(=O)(=O)Nc3cccc(C(F)(F)F)c3)cc2c1=O,-4,13,i,.,24,4,-9,-16,
O=C(NCCC1=CCCCC1)C1CCN(S(=O)(=O)c2cnc[nH]2)CC1,-11,13,.,41,1,2,4,2,
CNC(=O)COc1ncnc2sccc12,.,-12,.,.,-8,0,2,-20,
COc1ccc(N2CC(O)=C(c3nc4ccccc4s3)C2=N)cc1,12,2,i,.,5,2,0,-4,
COc1ccc(N2C(=O)CC(N3CCN(c4ccccc4OC)CC3)C2=O)cc1 (stereo unspecified),-11,-4,i,2,14,1,0,-7,
COc1cc(F)ccc1-c1cc(C(=O)NCc2ccc(C(F)(F)F)cc2)[nH]n1,.,.,.,-25,.,0,-2,-5,
O=C(NNC(=O)c1ccncc1)Nc1ccc(Br)cc1,.,.,.,-19,.,2,0,-7,
CC(C)C(=O)NC(c1ccco1)c1c(O)ccc2ccccc12 (stereo unspecified),-10,-5,i,-7,0,-5,-7,-5,
Cc1ccc(OCC(=O)Nc2ccc(C(=O)Nc3ccccc3C(=O)O)cc2)cc1C,.,.,.,-20,.,2,2,-24,
Cc1c(N)c(=O)n(-c2ccccc2)n1C,-17,.,.,-9,.,1,4,1,
O=C(CCSCCC(=O)NCc1ccco1)NCc1ccco1,-9,19,.,-22,-2,.,.,.,
CCC(OC(=O)c1cccs1)C(=O)NCc1ccc(C)cc1 (stereo unspecified),3,-6,i,5,-2,-5,-1,.,
CN(C(=O)COC(=O)Cc1c(Cl)cccc1Cl)c1c(N)n(Cc2ccccc2)c(=O)[nH]c1=O,.,.,i,-8,.,0,-2,16,
COc1ccccc1NC(=O)N1CCN(c2ccccc2F)CC1,-6,2,i,-8,-5,-3,-3,-4,
O=C(O)c1ccccc1Nc1ccc2nonc2c1[N+](=O)[O-],.,-8,i,11,7,1,1,3,
CCc1cc2c(=O)n(-c3ccccc3)c(SCC(=O)O)nc2s1,14,4,.,6,-7,0,1,-28,
Cc1cc(C)c(C)c(OCC(=O)NCc2nc(-c3ccccc3)no2)c1,-4,-5,i,.,-21,4,2,-18,
CCn1c(Cc2ccccc2)nnc1SCC(=O)Nc1ccc(N)cc1,8,-5,i,.,-2,-1,2,-11,

# Copied from the results shown (6 entries):
SMILES,CSC inhib,eIF4H inh,Rce1 inh,HIV Env fusion,PABP polyA inh,MT1-MMP act inh,MT1-MMP act inh RFP,Yeast UUG start,others
CCC(OC(=O)c1cccs1)C(=O)NCc1ccc(C)cc1 (stereo unspecified),3,-6,i,5,-2,-5,-1,.,
CN(C(=O)COC(=O)Cc1c(Cl)cccc1Cl)c1c(N)n(Cc2ccccc2)c(=O)[nH]c1=O,.,.,i,-8,.,0,-2,16,
COc1ccccc1NC(=O)N1CCN(c2ccccc2F)CC1,-6,2,i,-8,-5,-3,-3,-4,
O=C(O)c1ccccc1Nc1ccc2nonc2c1[N+](=O)[O-],.,-8,i,11,7,1,1,3,
CCc1cc2c(=O)n(-c3ccccc3)c(SCC(=O)O)nc2s1,14,4,.,6,-7,0,1,-28,
Cc1cc(C)c(C)c(OCC(=O)NCc2nc(-c3ccccc3)no2)c1,-4,-5,i,.,-21,4,2,-18,

# Later entries
SMILES,CSC inhib,eIF4H inh,Rce1 inh,HIV Env fusion,PABP polyA inh,MT1-MMP act inh,MT1-MMP act inh RFP,Yeast UUG start,others
COc1ccc(-c2nc3ccc(C)cn3c2NCc2ccccc2)cc1SC1CCCCC1,-10,.,i,.,.,1,-14,-12,
CC(=O)N/C(=C/c1ccccc1)C(=O)NCCO,-4,0,i,-22,-5,-4,-4,-21,
CCc1ccc(NC(=O)C2CCCN2S(=O)(=O)c2ccc3c(c2)n(C)c(=O)c(=O)n3C)cc1 (stereo unspecified),-6,-15,i,7,-8,1,-2,2,
N=c1c2c(-c3ccccc3)c(-c3ccccc3)n(Cc3ccco3)c2ncn1CCCN1CCOCC1,32,0,i,75*,-5,8,0,.,
CC(/C=N/NC(=O)c1cc(-c2ccccc2)nc2ccccc12)=C\c1ccco1,-18,19,i,-118,-3,0,-12,6,
Cc1ccccc1N1C(=O)c2ccccc2C1O (stereo unspecified),-9,3,i,5,2,4,6,-8,
Cc1cccc(-c2nnc(NC(=O)c3cccs3)s2)c1,-7,-8,i,-40,4,4,0,-16,
COC(=O)C1CCN(C(=O)COC(=O)c2ccc(OC)c(S(=O)(=O)N3CCCc4ccccc43)c2)CC1,-9,-2,i,9,-7,-2,-1,.,
O=C(CNCc1ccccc1)NC1C2CC3CC(C2)CC1C3 (stereo unspecified),-4,-3,i,21,-6,1,-2,-21,
Cc1cccc(-c2nc3c(c(SCC(=O)N4CCOCC4)n2)CCCC3)c1,-20,-10,i,.,3,-9,-10,.,
O=C(O)c1cnc(-c2ccccc2)nc1Oc1ccc(Cl)cc1,9,2,i,12,-18,3,2,.,
COc1ccc2c(c1)NC1(O)c3ccccc3C(=O)C21O (stereo unspecified),.,5,i,-2,3,-3,5,-8,
COc1ccc(-c2nn(-c3ccccc3)cc2/C=C/C(=O)N2CCOCC2)cc1OC,-18,-2,i,-12,1,8,3,.,
O=[N+]([O-])c1ccc(S(=O)(=O)c2ccccc2)nc1,102*,-4,i,-198,-6,-3,-14,-42,
COc1ccc(Br)cc1-c1noc(-c2ccncc2)n1,-6,8,i,.,5,-4,0,-9,
O=[N+]([O-])c1ccc2nc(SCc3cn4ccccc4n3)[nH]c2c1,-8,6,i,6,20,3,5,.,
CN(C(=O)COC(=O)Cn1cnc2ccccc21)C1CCCCC1,-3,.,.,11,.,5,-4,-18,
COc1ccc(N2CC(O)=C(c3nc(-c4ccc(Cl)cc4)cs3)C2=N)cc1,-7,?,i,6,-5,2,5,.,
CCO[C@H]1OC(C(=O)NC2CC2)=C[C@@H](C)[C@@H]1CCCO,-20,-8,i,7,-5,-5,2,-15,
C[C@H](NC(=O)OC(C)(C)C)c1nnc(SCC(=O)Nc2ccc(Br)cc2)o1,-8,-3,i,-28,-9,12,2,-10,
CS(=O)(=O)Nc1ccc(-c2ccc(/C=C3\SC(N)=NC3=O)o2)cc1,-11,48,i,4,-7,-24,1,-16,
Cc1ccccc1SCC(=O)NC1CCOC1=O (stereo unspecified),-4,4,i,-29,2,-1,3,-17,
Cc1cccc(-n2c(C)cc(/C=N/O)c2C)c1,-13,2,i,.,7,-3,4,-6,
Cc1cccc(C)c1NC(=O)CSc1nc(N2CCOCC2)nc(N2CCOCC2)n1,0,-14,i,.,-9,-1,2,-19,
O=C(CN1CCN(Cc2ccccc2)CC1)Nc1cccc(S(=O)(=O)N2CCCCCC2)c1,-11,4,i,10,-9,2,-4,.,
[N-]=[N+]=NC1c2ccccc2C(=O)N1Cc1ccccc1 (stereo unspecified),-11,79,i,11,-6,-2,1,0,eIF4H inh retest=-4;PABP polyA inh retest=2
CCCC(C)C(=O)Nc1ccc(C(N)=O)cc1 (stereo unspecified),-3,-13,.,-40,3,-2,8,7,
O=C(CN1CCCCC1)NNC(=O)c1ccc([N+](=O)[O-])cc1,-8,1,i,-7,-4,-2,2,4,
CC(C)NC(=O)c1ccccc1NS(=O)(=O)c1ccc(Br)s1,.,2,i,.,6,-2,-9,-2,
C=CCn1cc(C(=O)OC)c(=O)c2cc(S(=O)(=O)N3CCCCCC3)ccc21,-2,-4,i,-3,-8,.,.,-7,
CCOC(=O)[C@H]1[C@H]2COc3cc(OC)ccc3[C@@H]2N2C(=O)N(c3cccc(Cl)c3)C(=O)[C@@]12C,34,-7,i,.,9,14,-4,-20,
O=C1CC(=O)C(n2cncn2)C(c2ccc(Cl)cc2Cl)C1 (stereo unspecified),.,-1,i,.,1,6,4,-2,
C=CCNC(=S)Nc1sc2c(c1C(=O)OCC)CCN(C(=O)OCC)C2,0,-7,i,.,-4,0,-4,-12,
COc1ccc(CCCC(=O)N/N=C/c2cccc(OC)c2O)cc1C,113*,12,i,24,-5,-2,-5,.,
Nc1nnc(SCc2c(F)cccc2Cl)s1,-11,-4,.,-12,-6,7,4,-16,

# An unsorted share of the library. Share with any hit: about 3%.
